VDR inhibitor = Inhibitors of the vitamin D receptor (VDR): qHTS; VDR-SRC2-3 peptide fluorescence polarization, 2 h; Potency, µM, for the others: max response, negative = inhibition, actives largely listed as inhibitors; Vitamin D3 receptor (Homo sapiens), P11473; 400,000 tested, 0.93% active; AID 504847, 2011; active = well fitted inhibition curve with a large enough effect; inconclusive = small, poorly fitted or top-dose-only effect, or another doubt; inactive = no such curve, though single readings can be large or run the other way; note: series mostly up to about 120 µM
Target sequence (P11473 whole entry, looked up): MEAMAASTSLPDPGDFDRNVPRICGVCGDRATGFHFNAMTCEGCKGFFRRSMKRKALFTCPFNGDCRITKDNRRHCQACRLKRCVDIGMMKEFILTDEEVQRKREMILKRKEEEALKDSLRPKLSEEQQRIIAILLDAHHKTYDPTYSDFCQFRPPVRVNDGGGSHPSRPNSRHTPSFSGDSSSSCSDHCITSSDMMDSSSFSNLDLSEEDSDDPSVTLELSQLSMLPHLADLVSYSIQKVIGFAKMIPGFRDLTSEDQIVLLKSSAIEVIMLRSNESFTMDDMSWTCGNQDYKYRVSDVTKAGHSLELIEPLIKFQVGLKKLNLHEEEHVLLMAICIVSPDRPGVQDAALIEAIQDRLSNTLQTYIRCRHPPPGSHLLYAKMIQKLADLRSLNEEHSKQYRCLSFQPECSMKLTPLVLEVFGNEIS
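The screen uses fluorescence polarization to detect compounds that interfere with recruitment of the SRC2-3 coactivator peptide to VDR; plates are read after 2 h at room temperature.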
Starred values were filed as active, the others as inactive; ? = inconclusive; & = joins results of further samples. % is set by controls: 0 for no effect and ±100 for the full control effect; potency is the fitted concentration of half-maximal effect. The list is partial. The share of hits here may be higher or lower than overall.

VDR inhibitor	mol
-20.8%	CN(CC(=O)Nc1ccc([N+](=O)[O-])cc1Br)Cc1c(F)cccc1Cl
-3.1%	CCOC(=O)CC(C(=O)OCC)P(=O)(c1ccccc1)c1ccccc1 (centres undefined)
-13.1%	Cc1ccsc1C(=O)OCC(=O)Nc1c(C)n(C)n(-c2ccccc2)c1=O
?	CC(C)C[C@@H](CNCC(=O)[C@H](Cc1ccccc1)NC(=O)c1[nH]cnc1C(=O)N[C@@H](C)CN)NC(=O)c1nc[nH]c1C(=O)N[C@@H](CC(=O)O)C(=O)O
12.1%	CCOC(=O)c1c(C)[nH]c(C)c1S(=O)(=O)N1CCCC(C(=O)N2CCN(c3ccc(Cl)cc3)CC2)C1 (centres undefined)
-0.9%	COc1ccc(S(=O)(=O)N(CC(=O)Nc2ccc(Br)cc2)Cc2ccccc2)cc1
-6.6%	O=C(c1c(Cl)cccc1Cl)N1CCN(c2cccc3[nH]ccc23)CC1
-10.1%	CCCCN(C)C1CCN(C(=S)Nc2cccc(OC)c2)CC1
-4.6%	CC1CCN(C(C)C(=O)Nc2ccccc2-c2ccccc2)CC1 (centres undefined)
15.6%	O=C(NC(Cc1ccccc1)c1nc2ccccc2[nH]1)c1cccc([N+](=O)[O-])c1 (centres undefined)
-12.3%	Cc1ccc(N=Nc2c(=O)[nH]n3c(C)cc(C)nc23)cc1
-2.4%	COc1cccc(/C=N/NC(=O)C(=O)Nc2ccccc2OC(F)(F)C(F)F)c1O
-7.4%	O=C(N/C(=C\c1ccc([N+](=O)[O-])cc1)C(=O)N1CCCCC1)c1ccccc1Br
-0.6%	COc1ccc(Cl)cc1-c1nc(SCC(N)=O)n[nH]1
-24.0%	C=C1CCN([C@@H](Cc2ccccc2)C(=O)NCCC(C)C)S(=O)(=O)c2ccccc21
-6.1%	COc1ccc2cc(C(=O)OC(C)C)sc(=O)c2c1OC
4.3%	CS(=O)(=O)N1CCC[C@@]2(CCN(c3ccncc3)C2)C1
-1.0%	O=S(O)CO
-21.9%	COc1ccc(N2CC(O)=C(c3nc(-c4ccc(F)cc4)cs3)C2=N)cc1Cl
0.0%	Cc1ccc(SCCNC(=O)/C=C/c2ccc(Cl)cc2)cc1
-6.5%	Cc1[nH]c2ccccc2c1C(=O)C(=O)N1CC=C(c2ccccc2)CC1
4.1%	CC(C)c1nc(SCC(=O)Nc2nccs2)c2ccccc2n1
-2.7%	O=C1C(=O)N(CCCn2ccnc2)C(c2ccc(Br)cc2)/C1=C(\O)c1ccc2c(c1)OCCO2 (centres undefined)
-0.3%	CCn1c(CNC(=O)c2ccccc2F)nnc1SCC(=O)NC1CCCCC1
-0.9%	NNC(=O)c1snnc1-c1ccccc1
7.8%	CC(C)c1ccc(NC(=O)C[n+]2ccn(C3=C([O-])c4ccccc4C3=O)c2)cc1
15.4%	CCOC(=O)C1CCN(C(=O)c2ccccc2NS(=O)(=O)c2ccc(F)cc2)CC1
12.3%	NS(=O)(=O)c1ccc(CCNC(=O)CNCCc2ccc(C(F)(F)F)cc2)cc1
-5.7%	C=CCN1C(=O)c2ccc(C(=O)N(C)CC(=O)Nc3ccccc3Cl)cc2C1=O
-5.3%	O=C(NCCS(=O)(=O)NC1CCCC1)c1ccc(F)cc1
10µM*	N#CC(C#N)=C1C=CC=CN1/C(=C\c1ccco1)C(=O)c1ccc(Br)cc1
-13.3%	CCN(C(=O)N1CCOCC1)c1ccccc1C
4.0%	O=C1CCCN1CCC1CCN(C(=O)Nc2ccccc2)CC1
-0.2%	Cc1c(CN2CCC(n3nccc3NC(=O)C3CC3)CC2)[nH]c2ccccc12
-0.9%	COc1ccc(-c2nc3c(c(SC)n2)Cc2c(CO)cnc(C)c2O3)cc1
13.0%	O=C(CC1S/C(=N/N=C/c2cccs2)NC1=O)Nc1ccc(Cl)c(Cl)c1 (centres undefined)
2.6%	COc1ccc(CNC(=O)N2CCN(c3cccc(Cl)c3)CC2)cc1OC
-4.1%	CCn1ccnc1CNC(=O)C1CCC(=O)N(Cc2ccccc2F)C1 (centres undefined)
-14.6%	COc1cc(-c2nc3ccc4ccccc4c3c3c2CCC3)cc(OC)c1O
-10.2%	COc1ccc(-c2cc3nc(C)c(CCC(=O)NC(C)c4ccccc4)c(C)n3n2)c(OC)c1 (centres undefined)
?	CCCCC[C@@H]1C=C(C(=O)O)[C@H](c2ccc(Cl)c(Cl)c2)N1S(=O)(=O)c1ccc(C)cc1
7.7%	CCCCNC(=O)C(=O)NCc1ccncc1
4.9%	CCOC(=O)C(CCc1ccccc1)NC(C)C(=O)N1CCCC1C(=O)O (centres undefined)
-9.7%	COc1cc(C)c(CN2CCSCC2)cc1C
-11.6%	CN1CCN(c2nc3c(=O)[nH]c(N)nc3n2C2OC(CO)C(O)C2O)CC1 (centres undefined)
-1.1%	COc1ccccc1-c1nn(-c2ccccc2)cc1C(=O)N1CCN(C(=O)c2ccco2)CC1
1.2%&2.3%	COc1cccc(CNC(=O)CCn2c(=O)c3cccn3c3cccnc32)c1
-3.1%	CCCCCCCCCCn1ccc(=N)cc1
-16.0%	O=C(Cn1cnc2c(cnn2-c2ccccc2)c1=O)Nc1cc(S(=O)(=O)N2CCOCC2)ccc1Cl
18.1%	Cc1ccc(NC(=O)C/C(N)=N/OC(=O)Nc2ccc(C)c(Cl)c2)cc1

(more compounds)
VDR inhibitor	mol
-28.2%	C[C@@H]1C[C@@H]2OC(=O)[C@]3(C)[C@H]2[C@@H](OC3(C)O)[C@]2(C)C(=O)C=C[C@H]12 (some centres undefined)
?	CCOc1ccc(NC(=S)NNc2ccnc3cc(Cl)ccc23)cc1
-18.6%	COc1cccc(-n2cc(CNCc3c(C(=O)N(C)C)nc4ccc(Cl)cn34)cn2)c1
-13.2%	Cc1cc(Br)ccc1NC(=O)Cn1cnc2sc(C)c(S(=O)(=O)N3CCN(C)CC3)c2c1=O
3.8%	Cc1ccc(-c2onc(C)c2C)cc1S(=O)(=O)N1CCCCC1
-8.7%	O=C(N1CCCCC1)N1CCN(S(=O)(=O)c2ccc(Cl)cc2)CC1
-6.6%	CCN(CC)S(=O)(=O)c1c(OC)cc(C)c(Cl)c1C
17.3%	COc1ccc(NC(=O)c2csc3c2CCCC3)cc1
-24.4%	Cc1ccc(S(=O)(=O)CCC(=O)Nc2cccc([N+](=O)[O-])c2)cc1
11.6%	Cc1ccc(C)c(N2CCN(C(=O)c3csc4ccccc34)CC2)c1
1.6%	O=C1c2ccccc2C(=O)N1Cc1cc(-c2ccccc2Cl)no1
7.0%	C/C(CC(=O)Nc1cccc2c1CCCC2)=N\NC(=O)c1cccc2ccccc12
14.2%	Cc1ccc(NC2=NC(c3ccc(F)cc3)n3c(nc(C)cc3=O)N2)cc1 (centres undefined)
-6.8%	O=C(CSc1ncnc2c1cnn2-c1ccccc1)Nc1ccc2c(c1)OCO2
-11.2%	COCC(=O)Nc1ccc(N2CCCC2)c(S(=O)(=O)Nc2ccccc2OC)c1
-5.4%	COc1ccccc1C(=O)COC(=O)CN1C(=O)C2CC=CCC2C1=O (centres undefined)
8.1%	O=C(NC1CCCCC1)C(c1ccco1)N(Cc1cccs1)C(=O)Cn1nnc2ccccc21 (centres undefined)
-5.0%	COc1ccc(N=N/C(C(C)=O)=C(/C)O)cc1
-14.8%	CN(C(=O)C1CCCCN1S(=O)(=O)c1ccccc1)c1ccccc1 (centres undefined)
-14.4%	O=C(COc1ccc(Cl)cc1)NCc1nnc(SCC(=O)N2CCCCC2)o1
-1.7%	CN1CCN(CCCNC(=O)c2cc3c(-c4ccc(Cl)cc4)nn(C)c3s2)CC1
4.6%	COc1ccc(OC)c(CCNC(=O)c2cnn(-c3ccc(C)cc3C)c2C2CCN(C(=O)OC(C)(C)C)CC2)c1
-6.0%	CCOC(CNC(=O)C(=O)Nc1cc2c3c(c1)CCC(=O)N3CCC2)OCC
17.1%	Cc1nn(CC(=O)N2CCN(c3cccc(Cl)c3)CC2)c(=O)c2c1sc1ccccc12
25.1µM*	COc1cc(NCc2ccc3nc(N)nc(N)c3c2C)cc(OC)c1OC

Another view of 3 compounds above:
COc1ccc(N=N/C(C(C)=O)=C(/C)O)cc1
  VDR inhibitor: -5.0%

CN(C(=O)C1CCCCN1S(=O)(=O)c1ccccc1)c1ccccc1 (centres undefined)
  VDR inhibitor: -14.8%

Cc1ccc(NC2=NC(c3ccc(F)cc3)n3c(nc(C)cc3=O)N2)cc1 (centres undefined)
  VDR inhibitor: 14.2%

Additional entries follow.
VDR inhibitor	mol
-9.6%	CN1CCN(C(=O)/C=C/c2ccc([N+](=O)[O-])cc2)CC1
8.6%	C[n+]1cn(Cc2ccc(C#N)cc2)c2ccccc21
-16.3%	NC(=O)CC(NC(=O)Cc1ccc(Cl)cc1)c1ccc(NC2CCCCC2)c([N+](=O)[O-])c1 (centres undefined)
-11.5%	Nc1nc(SCc2cccc([N+](=O)[O-])c2)n[nH]1
6.4%	CCOC(=O)c1scc(-c2ccc(C)cc2)c1S(=O)(=O)Nc1cc(C)ccc1C
11.8%	COc1ccccc1N1CC(C(=O)Nc2ccccc2N2CCCC2)CC1=O (centres undefined)
2.3%	O=C(Nc1ccccc1)c1cccc2c(=O)c3c([nH]c12)CCCC3
3.9%	Cc1c(=O)n(OCc2ccccn2)c2ccccc2[n+]1[O-]
19.3%	O=C(CN(c1ccccc1)S(=O)(=O)c1ccc(Cl)cc1)Nc1cccnc1
9.1%	CCC(=O)N1c2ccccc2CC1C(=O)NCCc1ccc(OC)c(OC)c1 (centres undefined)
4.2%	CCC(NC(=O)c1ccccc1NC(=O)c1ccco1)C(=O)NC1CCCCC1 (centres undefined)
-6.1%	O=C(NC(=S)Nc1ccc(N2CCOCC2)cc1)c1cccc(Cl)c1Cl
-7.9%	CCO[C@@H]1OC(C(=O)N2CCN(Cc3ccccc3)CC2)=C[C@H](C)[C@H]1CCCO
-3.3%	NC(=O)CN1C(=O)C2C3C=CC(C3)C2C1=O (centres undefined)
-3.9%	O=C(NNC(=O)c1ccc(-c2ccccc2)cc1)Nc1ccccc1F
-15.9%	Cc1nnc(N2C(=O)c3cccc4cccc(c34)C2=O)s1
12.6%	CN(Cc1ccon1)C(=O)CC1C(=O)NCCN1Cc1cccc(F)c1F (centres undefined)
7.1%	CCCCOc1ccc(C(=O)Nc2cccc(-c3nc4cccnc4s3)c2)cc1
?	CCOC(=O)/C(=C\c1ccc(OC)c(OC)c1)C(=O)c1cccnc1
8.8%	COc1ccc(NC(=O)COc2ccc(-c3ccccc3)cc2)cc1
1.8%	CC(C)CC(=O)Nc1cc2c3c(c1)CCN3C(=O)CC2
6.4%	COc1cccc(C2CC(c3cccs3)Nc3ncnn32)c1 (centres undefined)
10.2%	CCCCNC(=O)CSc1ccc(S(=O)(=O)N2CCOCC2)cn1
-16.6%&6.5%	O=C(NCCNCC(O)COc1ccc(O)cc1)N1CCOCC1 (centres undefined)
6.7%	Cc1cc(C)n(CC(O)COc2ccc(Cl)cc2)n1 (centres undefined)
-3.1%	CCc1ccc(OCC(=O)N(C)CCC#N)c(Br)c1
-14.8%	O=C(COC(=O)c1ccc(Cl)nc1)Nc1ccc2ccccc2c1
-1.6%	COc1ccccc1NC(=O)Cc1csc(NC(=S)Nc2ccc(C)cc2)n1
7.4%	C[C@H](O)CO[C@H]1[C@H]2O[C@H]3[C@H](O)[C@@H](O)[C@@H](O[C@H]4[C@H](O)[C@@H](O)[C@@H](O[C@H]5[C@H](O)[C@@H](O)[C@@H](O[C@H]6[C@H](O)[C@@H](OC[C@H](C)O)[C@@H](O[C@H]7[C@H](O)[C@@H](OC[C@H](C)O)[C@@H](O[C@H]8[C@H](O)[C@@H](O)[C@@H](O[C@@H]([C@@H]1O)[C@@H](CO)O2)O[C@@H]8CO)O[C@@H]7CO)O[C@@H]6CO)O[C@@H]5CO)O[C@@H]4CO)O[C@@H]3CO
-16.3%	Cc1cc(C(=O)CN2C(=O)NC(c3ccccc3)(c3ccccc3)C2=O)c(C)n1Cc1ccccc1
-6.1%	COc1ccc(Cn2c(=O)[nH]c3cc(C(=O)N4CCN(C(=O)c5ccco5)CC4)ccc3c2=O)cc1
12.0%	CSc1ccc(S(=O)(=O)NCC(=O)OCC(=O)N2CCC(C)CC2)cc1[N+](=O)[O-]
-3.5%	Cc1nn(Cc2c(Cl)cccc2Cl)c(C)c1N
-29.8%	COCc1cccc(C2=CC(=O)C[C@H](c3ccc(OC)cc3)C2)c1
17.3%	C=C1CCN([C@H](C(=O)OCc2cccc(C)c2)C(C)C)S(=O)(=O)c2ccccc21
-7.4%	CC(=O)CSc1nnc(C(F)(F)F)n1C
-2.3%	COc1ccc(-c2noc(COc3ccc(C)c(C)c3)n2)cc1OC
-3.8%	COC(=O)c1ccc(CSc2n[nH]c(C)n2)o1
-15.0%	CC(=O)C1C(=O)CC(C)(O)C(C(C)=O)C1c1ccc(N(C)C)cc1 (centres undefined)
-9.2%	CCOC(=O)C1=C(CS(=O)(=O)c2ccc(C)cc2)NC(=O)NC1c1ccc(C(C)C)cc1 (centres undefined)
-1.4%	CCn1c(-c2ccc3[nH]c(C)c(C)c3c2)n[nH]c1=S

Exported as a markdown table: part of the list above
| SMILES | VDR inhibitor |
| --- | --- |
| COc1ccccc1NC(=O)Cc1csc(NC(=S)Nc2ccc(C)cc2)n1 | -1.6% |
| C[C@H](O)CO[C@H]1[C@H]2O[C@H]3[C@H](O)[C@@H](O)[C@@H](O[C@H]4[C@H](O)[C@@H](O)[C@@H](O[C@H]5[C@H](O)[C@@H](O)[C@@H](O[C@H]6[C@H](O)[C@@H](OC[C@H](C)O)[C@@H](O[C@H]7[C@H](O)[C@@H](OC[C@H](C)O)[C@@H](O[C@H]8[C@H](O)[C@@H](O)[C@@H](O[C@@H]([C@@H]1O)[C@@H](CO)O2)O[C@@H]8CO)O[C@@H]7CO)O[C@@H]6CO)O[C@@H]5CO)O[C@@H]4CO)O[C@@H]3CO | 7.4% |
| Cc1cc(C(=O)CN2C(=O)NC(c3ccccc3)(c3ccccc3)C2=O)c(C)n1Cc1ccccc1 | -16.3% |
| COc1ccc(Cn2c(=O)[nH]c3cc(C(=O)N4CCN(C(=O)c5ccco5)CC4)ccc3c2=O)cc1 | -6.1% |
| CSc1ccc(S(=O)(=O)NCC(=O)OCC(=O)N2CCC(C)CC2)cc1[N+](=O)[O-] | 12.0% |
